# Screens deposited in PubChem BioAssay by several laboratories.
# Hsc70: Hsc70 inhibitors, probe displacement, primary screen, biochemical, fluorescence polarization (AID 568). Hsc70 fluorescence polarization, probe displacement; higher % means a stronger effect; strong numbers were not always called active. one-dose displacement, % at 20 µM; IC50 in µM for titrated hits. 83,000 tested, under 10 active;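 active = displacement above 50% without optical interference and an IC50 on retest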;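 note: ATPase domain with a fluorescein-tagged ATP probe; 0% = vehicle and 100% = excess ADP; read after one hour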
# MT1-MMP promoter: MT1-MMP gene expression reporter suppression – cell-based, luciferase reporter, luminescence (AID 618) | MT1-MMP promoter luciferase reporter cells, luminescence | calls from a first round at 10 µM; hits with a dose series show EC50 in µM | 87,000 compounds, 0.62% hits;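 active = over half of the reporter light lost at 10 µM or EC50 under 50 µM; inactive = the rest and hits that failed the dose series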;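 note: actives suppress MT1-MMP promoter-driven transcription so potencies describe inhibitors; HT1080 fibrosarcoma cells; overnight exposure; toxic or luciferase-blocking compounds were not removed from the actives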
# WNV protease inh: WNV NS2B-NS3 proteinase inhibition; WNV NS2B-NS3 protease, fluorogenic substrate Ex360/Em465; hits give low values; z-score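 (tested at a level between 10 and 100 µM)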; 65,000 compounds, 0.18% hits; AID 577;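 active = z-score at -3 or under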;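 note: score is relative to mean and spread of the compound wells of a plate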
# Target sequence (P06935 1371-1501 limits assumed): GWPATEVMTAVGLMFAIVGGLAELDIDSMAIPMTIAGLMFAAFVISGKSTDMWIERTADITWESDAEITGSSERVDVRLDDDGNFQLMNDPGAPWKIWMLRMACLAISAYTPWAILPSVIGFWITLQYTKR
# Target sequence (P06935 1502-1679 limits assumed): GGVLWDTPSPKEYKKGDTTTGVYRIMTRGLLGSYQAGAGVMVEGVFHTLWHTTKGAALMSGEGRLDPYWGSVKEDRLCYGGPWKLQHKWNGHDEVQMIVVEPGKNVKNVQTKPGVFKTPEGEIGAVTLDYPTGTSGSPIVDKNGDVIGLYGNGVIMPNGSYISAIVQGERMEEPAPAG
# An asterisk follows results filed as active; i = inactive; / = no result given. This is a subset (hit frequency here may not be typical).
SMILES,Hsc70,MT1-MMP promoter,WNV protease inh
CCn1c(SCC(=O)NCc2ccccc2)nnc1-c1c[nH]c2ccccc12,4.2%,i,/
CCN(CC)S(=O)(=O)c1cc(-c2nnc(-c3ccc(Br)cc3)o2)ccc1Cl,-7.6%,i,-0.45
O=C(NCCN1CCOCC1)c1ccc2c(c1)N(Cc1ccccc1)C(=O)CS2,2.1%,i,0.71
CCSc1oc(-c2cccs2)nc1S(=O)(=O)c1ccccc1,-3.8%,i,-0.34
O=c1c2ccccc2nc(SCc2nnc(-c3ccccc3Br)o2)n1Cc1ccco1,-5.0%,i,0.05
CCN=c1scc(-c2ccco2)n1/N=C/c1ccc(OC)c(O)c1,1.8%,i,/
CCOC(=O)c1cnc2ccc(Br)cc2c1NCC(C)O (stereo not given),2.2%,i,-0.55
CCCN1C2=NCCN2c2ccccc21,2.9%,i,0.53
CCCn1c(-c2ccc(OC)cc2)nc2ccccc21,1.2%,i,-0.6
CCOC(=O)CSc1nnc(-c2ccccc2)c(=O)[nH]1,1.3%,i,/
CCOC(=O)c1cnc2c(-c3ccccc3)cnn2c1N,2.7%,i,-0.32
O=c1[nH]cnc2nc3n(c12)CCCCC3,-1.9%,i,-1.3
CC(=O)c1c(C)[nH]c(C(=O)COc2ccc(C#N)cc2)c1C,4.6%,i,/
Cc1cccc(NC(=O)CSc2nnc(-c3ccc(S(=O)(=O)N4CCCC4)cc3)o2)c1,-1.4%,i,-0.33
OCCNc1nc2ccccc2n1-c1ccccc1,0.9%,i,1.2
Cc1c(C(=O)O)sc(=S)n1-c1ccc(Cl)cc1,-1.1%,i,/
CCNc1nc(Oc2ccc(C(=O)OC)cc2)nc(N(C)C)n1,2.6%,i,0.45
CC(C(=O)NCC1CCCO1)N(C(=O)c1snc(C(N)=O)c1N)c1ccccc1 (stereo not given),3.8%,i,0.95
Cc1cc(NC2CCCCC2)nc(-c2ccccc2O)n1,-0.2%,i,/
O=C(CCn1cnc2ccccc2c1=O)Nc1ccc(S(=O)(=O)N2CCCC2)cc1,-4.1%,i,0.97
CC(C)C(=O)Nc1cccc(C(=O)NCc2ccc3c(c2)OCO3)c1,4.5%,i,1.3
CCOc1ccc2nc(NC(=O)CN3CCC(n4nnc5cc(F)ccc54)CC3)sc2c1,-10%,i,0.79
O=C(CCCOc1ccccc1)Nc1nccs1,3.1%,i,-0.1
CCNC(=O)CN1C(=O)NC2(CCCc3cc(OC)ccc32)C1=O (stereo not given),2.7%,i,/
COc1ccc(C(c2nnnn2Cc2cccs2)N2CCN(c3ccccc3F)CC2)cc1OC (stereo not given),0.2%,i,-0.52
CCc1c(O)nc(SCC(=O)Nc2ccc(OC)cc2)n(C2CCCCC2)c1=O,-7.0%,i,0.54
CN(C)c1nc2n(c(=S)n1)CCS2,-3.3%,i,-0.09
CCOC(=O)CSc1nnnn1-c1cccc2ccccc12,3.0%,i,-0.26
CC(=O)Nc1ccccc1Nc1cc(C#N)c(C#N)cc1[N+](=O)[O-],0.6%,i,/
O=C(CCc1nc2ccccc2[nH]c1=O)OCC(=O)c1ccc(Cl)cc1,4.5%,i,/
O=C1CC(c2ccc(F)cc2)Cc2nc(N3CCOCC3)ncc21 (stereo not given),-1.0%,i,-1.3
Cn1c2c(c(=O)n(C)c1=O)C(c1ccccc1OC(F)F)C1=C(CCCC1=O)N2 (stereo not given),3.2%,i,0.33
CN1CCCN(C(=O)Cc2c(Cl)cccc2Cl)c2nc3ccccc3nc21,4.3%,i,-0.52
Cc1ccc(-n2c(SCc3cc(=O)n4ccsc4n3)nnc2-c2cccnc2)c(C)c1,6.8%,i,0.17
COc1ccccc1-n1c(N)c(C(=O)NCC2CCCO2)c2nc3ccccc3nc21 (stereo not given),-5.3%,i,1.1
COc1ccc(OC)c(C2CC(=O)C(C)C(c3cc(OC)ccc3OC)N2)c1 (stereo not given),0.6%,i,/
CNc1nc(OCC(F)(F)F)nc(N2CCOCC2)n1,16%,i,/
CCc1nnc(NC(=O)c2ccc(S(=O)(=O)NCC(C)C)cc2)s1,2.4%,i,-0.8
O=C(CC(c1ccccc1)C1CCCCC1=O)c1ccco1 (stereo not given),-56%,i,/
COCCNC(=O)c1cc(-c2ccccc2OC)on1,6.3%,i,0.9
Cc1ccc2oc(-c3ccccc3C(=O)O)cc(=O)c2c1,-6.9%,i,0.45
CC1=C(C(=O)OC(C)C)C2(O)C(=O)c3ccccc3C2(O)N1 (stereo not given),1.3%,i,/
CC(C)(C)C1CCc2c(sc(N)c2C(N)=O)C1 (stereo not given),-10%,i,0.37
CC(=O)OCCNC(=O)Cn1cnc2c1c(=O)n(C)c(=O)n2C,-2.1%,i,-1.1
O=C(Nc1nnc(C2CCCC2)s1)C1CCN(S(=O)(=O)c2ccc(Cl)cc2)CC1,3.0%,i,0.37
CCOc1ccccc1C(=O)NCC(=O)OCC(=O)N1C(C)CCCC1C (stereo not given),9.8%,i,-0.3
CCOC(=O)CNc1c(-c2ccc(OC)cc2)nc2ccc(Cl)cn12,0.1%,i,/
CC12CCCCC1(O)[N+](=O)C1=C(CCCC1)N2[O-] (stereo not given),-5.3%,i,-1.5
CC(C)NC(=O)CSc1nnc2sc3ccccc3n12,-3.4%,i,1.1
COc1ccc(C2C(C(=O)NCCN3CCOCC3)c3ccccc3C(=O)N2C2CCCCC2)cc1 (stereo not given),4.6%,i,1.4

# Continued.
SMILES,Hsc70,MT1-MMP promoter,WNV protease inh
Cc1cc(NC(=O)COC(=O)c2cc(S(=O)(=O)N3CCOCC3)ccc2N2CCCCC2)no1,0.6%,i,/
Cc1ccc(-c2cc(C(=O)NCc3cccnc3)no2)cc1,6.3%,i,0.66
Cc1nnc(SCc2ccc(Cl)cc2Cl)[nH]c1=O,8.7%,i,1
O=C(N1CCCCC1)C12CC3CC(CC(C3)C1)C2,-1.6%,i,/
Cn1nnnc1SCC(=O)N1CCc2ccccc2C1,-3.2%,i,-1.3
COc1ccc(NC(C)=O)cc1NC(=O)CSc1nnc(-c2ccncc2)n1C,1.6%,i,-0.44
CCOc1cc(-c2noc(-c3ccncc3)n2)cc(Br)c1OC,-0.1%,i,-0.35
O=S(=O)(NC1CCCCC1NCc1ccco1)c1ccccc1 (stereo not given),3.0%,i,0.1
CC1(C)COCN1S(=O)(=O)c1ccc(C(=O)Nc2nnc(-c3ccc(Cl)s3)o2)cc1,3.8%,i,-0.35
CCC(=O)NC(c1ccccc1OC)c1ccc2cccnc2c1O (stereo not given),3.1%,i,/

# A run of entries from further up, for reference:
SMILES,Hsc70,MT1-MMP promoter,WNV protease inh
O=S(=O)(NC1CCCCC1NCc1ccco1)c1ccccc1 (stereo not given),3.0%,i,0.1
CC1(C)COCN1S(=O)(=O)c1ccc(C(=O)Nc2nnc(-c3ccc(Cl)s3)o2)cc1,3.8%,i,-0.35
CCC(=O)NC(c1ccccc1OC)c1ccc2cccnc2c1O (stereo not given),3.1%,i,/

# Pulled by structure from the list above, four records:
SMILES,Hsc70,MT1-MMP promoter,WNV protease inh
Cn1nnnc1SCC(=O)N1CCc2ccccc2C1,-3.2%,i,-1.3
CC1(C)COCN1S(=O)(=O)c1ccc(C(=O)Nc2nnc(-c3ccc(Cl)s3)o2)cc1,3.8%,i,-0.35
Cc1nnc(SCc2ccc(Cl)cc2Cl)[nH]c1=O,8.7%,i,1
O=C(N1CCCCC1)C12CC3CC(CC(C3)C1)C2,-1.6%,i,/

# Additional entries.
SMILES,Hsc70,MT1-MMP promoter,WNV protease inh
CCn1cc(Br)c(C(=O)Nc2ccc(OC)cc2)n1,-1.0%,i,-0.55
COCCCNC(=O)CN(C1CCCCC1)S(=O)(=O)c1ccc(C)cc1,-4.0%,i,1.7
COc1cccc(C(=O)Nc2ccc(-c3nnc(-c4ccco4)o3)cc2)c1,0.5%,i,-0.0014
O=c1cc(CO)oc(C(Nc2ccccn2)c2ccc(C(F)(F)F)cc2)c1O (stereo not given),0.3%,i,0.04
CC(NC(=O)c1ccc(F)cc1)C(c1cccs1)N1CCN(C)CC1 (stereo not given),-5.2%,i,-0.27
O=C(NCc1ccc2c(c1)OCO2)C1CCC(CNS(=O)(=O)c2ccccc2)CC1 (stereo not given),5.6%,i,0.73
O=C(NC1CCCCCC1)C1CCCN(S(=O)(=O)c2cnc[nH]2)C1 (stereo not given),0.1%,i,0.95
Cc1cc(C)n2nc(SCC3COc4ccccc4O3)nc2n1 (stereo not given),1.8%,i,0.11
CCCn1c2c(c(O)c(C(=O)Nc3ccc(C)cn3)c1=O)CCCC2,-1.5%,i,-0.45
Cc1sc(NC(=O)C2CCCO2)c(C(N)=O)c1C (stereo not given),0.4%,i,/

# Given tab-delimited: two of the compounds above.
structure	Hsc70	MT1-MMP promoter	WNV protease inh
COc1ccc(C(c2nnnn2Cc2cccs2)N2CCN(c3ccccc3F)CC2)cc1OC (stereo not given)	0.2%	i	-0.52
Cc1ccc(-c2cc(C(=O)NCc3cccnc3)no2)cc1	6.3%	i	0.66

# Later entries:
SMILES,Hsc70,MT1-MMP promoter,WNV protease inh
COCCN1C(=O)C(O)=C(C(=O)c2ccco2)C1c1cccc(Oc2ccccc2)c1 (stereo not given),-2.6%,i,0.21
CCCc1cc2c(=O)c(-c3ccccn3)coc2cc1OC,9.4%,i,0.58
O=C(Nc1nc(NC(=O)c2ccco2)n(-c2ccccc2)n1)c1ccccc1,-2.1%,i,1.6
Cc1cc2c(c(N)n1)c(=O)oc1ccccc12,0.5%,i,-0.18
O=C(c1ccc(NS(=O)(=O)c2ccccc2)cc1)N1CCCC1,2.7%,i,-0.61
COCCCNC(=O)c1ccc(N(C)S(=O)(=O)c2ccc(OC)cc2)cc1,3.2%,i,0.62
O=C(Cc1c(C(=O)O)[nH]c2ccccc12)Nc1ccc2c(c1)OCO2,0.3%,i,-0.63
C=CCSc1nnc(NC(=O)c2ccc(S(=O)(=O)NCC3CCCO3)cc2)s1 (stereo not given),-2.8%,i,-0.61
COC(=O)C1=C(C(=O)OC)SC(=C2C(=S)C(C)(C)N(C(=O)CC(C)C)c3ccccc32)S1,-4.2%,i,/
CC(C)CCNc1cc(=O)n(C)c(=O)n1C,3.8%,i,0.53
COC(=O)c1cc(C(=O)OC)cc(N2C(=O)CN=C2Nc2nc(C)cc(C)n2)c1,-1.5%,i,-0.03
O=C1C2C3C=CC(CO)(O3)C2C(=O)N1c1ccc(-c2ccccc2)cc1 (stereo not given),4.9%,i,-1.1
Cc1cccc(OCC(=O)OCC(=O)c2c(N)n(C)c(=O)n(C)c2=O)c1C,-1.3%,i,/
CC(C)NC(=O)C1CC(=O)N(c2ccc(F)c(Cl)c2)C1 (stereo not given),5.3%,i,-0.56
CCOC(=O)c1cnc(Nc2nc3ccccc3o2)nc1CSc1ncccn1,-6.4%,i,-0.26
O=C1CCCC/C1=C\Nc1ccc(O)cc1,-0.5%,i,0.21
COCC(C)NC(=O)CCSc1nc(-c2ccc(OC)cc2)cc(C(F)(F)F)n1 (stereo not given),-5.3%,i,/
CSc1nc2c(c(=O)[nH]1)C(c1ccncc1)C(C(=O)OC(C)C)=C(C)N2 (stereo not given),9.5%,i,-0.96
Cn1cnnc1SCC(=O)NCc1cccc(C(F)(F)F)c1,4.5%,i,-0.86
COc1ccc(N/C=C2\CCOC2=O)cc1,-2.4%,i,-1
COC(=O)c1cn(CCOc2ccccc2F)c2ccccc12,5.5%,i,/
COC(=O)COc1ccc(C2NC(=O)NC(c3ccccc3)=C2C(C)=O)cc1OC (stereo not given),-0.7%,i,/
CC(=O)c1cccc(NC(=O)CCOc2ccccc2)c1,0.2%,i,-0.07
Cc1nc(NC(=O)c2oc3ccccc3c2C)sc1C(=O)N(C)C,0.6%,i,0.01
CC(C)(C)OC(=O)NCCc1nnc(SCC(N)=O)o1,2.2%,i,0.08
Cc1noc(C)c1COC(=O)CCc1nc2ccccc2c(=O)[nH]1,-4.7%,i,2.3
Cc1c(NC(=O)CSc2nc3ccccc3[nH]2)c(=O)n(-c2ccccc2)n1C,-3.7%,i,-0.13
CC(=O)c1cc(C(=O)Nc2ccccc2C(=O)O)oc1C,-4.5%,i,0.3
O=C(Nc1ccc2c(c1)OCCO2)c1ccc(S(=O)(=O)N2CCCCC2)cc1,-5.3%,i,-0.0018
CCN(CC)C(=O)CSc1nc2ccccc2o1,-1.5%,i,/
O=C(NCCN1CCOCC1)c1nn2c(c1Cl)NC(c1ccccc1)CC2C(F)(F)F (stereo not given),-0.3%,i,-0.62
COCC(O)CSc1nc(C)[nH]c1[N+](=O)[O-] (stereo not given),5.4%,i,/
O=C(COC(=O)[C@H](Cc1ccccc1)N1C(=O)c2ccccc2C1=O)Nc1ccc2c(c1)OCO2,0.7%,i,/
COc1ccc(Cl)cc1NC(=O)CSc1nnc(COc2ccccc2)n1C,4.1%,i,0.72
COc1ccccc1NC(=O)C1=C(C)Nc2nnnn2C1c1cccc(C)c1 (stereo not given),8.6%,i,-0.2
CCOc1ccc2nc(NCCNC(=O)C3CC3)c(C)cc2c1,4.1%,i,1.7
Cc1ccc(-c2cc(-c3cccc(F)c3)n[nH]2)c(O)c1,8.9%,i,-0.22
CCS(=O)(=O)Nc1ccc(C(=O)OC)cc1,-11%,i,-1.9
Cn1c(=O)c2c(nc(-n3ccnc3)n2C)n(C)c1=O,9.8%,i,0.13
O=C(NCC12CC3CC(CC(C3)C1)C2)c1nn2cccnc2c1Cl,1.3%,i,/
Cc1onc(-c2ccccc2)c1C(=O)NCCc1ccc(Cl)cc1,-0.8%,i,/
